Bioassay records deposited in PubChem BioAssay by several laboratories.
Calb FLC = affects C. albicans growth with fluconazole; AID 1979; C. albicans CaCi-2 (fluconazole-resistant clinical isolate) + fluconazole, Alamar Blue growth, 48 h; actives 0.57% (n = 300,000); growth inhibition, % (concentration not given with the values);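 active = most replicates above 75%; inconclusive = exactly half above 75%; inactive = most below 75%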;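 also: all wells also contain fluconazole at 8 µg/ml as a sub-toxic cotreatment; 0% = median of DMSO wells and 100% = median of geldanamycin control wells; wells of about 8 µL received 7.5 nL stock; the first replicate is given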
Beta apoptosis = beta cell apoptosis inhibition | INS-1E cytokine-induced death, ATP luminescence, 48 h; percent of positive-control rescue, neutral wells zero | protection from apoptosis, % (test concentration not listed) | actives 0.8% (n = 300,000) | AID 435005;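 active = all replicates at 75% or more, or half of them and the mean; inconclusive = half reach 75% but not the mean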;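 also: 0% = cytokine-treated negative control wells and 100% = positive control rescue; higher means more ATP so stronger rescue from cytokine killing; wells of about 40 µL received 100 nL stock; the first replicate is given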
Vif TR-FRET = inhibitors of Vif binding to APOBEC3G peptide, primary screen, biochemical, TR-FRET, GST-Vif 1-94, biotin-A3G peptide, dose response retest (AID 1117319); inhibition, %; hits with a dose series show IC50 in µM; TR-FRET GST-Vif / biotin-A3G peptide binding; higher % means a stronger effect; test concentration not given here; strong numbers were not always called active; actives 0.57% (n = 260,000);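 active = above the screen mean plus three standard deviations and confirmed in dose response; inconclusive = results disagree or hit not tested in dose response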;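 also: Vif residues 1-94 fused to GST binding biotinylated APOBEC3G peptide 110-148; 0% = full assay without inhibitor and 100% = GST in place of GST-Vif; retest series ran down from 100 µM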
MLL AF4-AF9 inh = inhibitors of human MLL-AF4/AF9 interaction | AlphaScreen, biotin-AF4 peptide binding to FLAG-AF9 | inhibition, % at 10 µM | actives 0.47% (n = 350,000);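 active = every replicate reaching a set inhibition limit, whatever the replicate mean, cut at about 25% in these data; inconclusive = mean inhibition reaches that limit but some replicates miss it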;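 also: 0% = plate neutral control median and 100% = total signal loss; the record names both 10 and 1 µM as test concentration; the first replicate is given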
Target sequence (P42568 whole entry, looked up): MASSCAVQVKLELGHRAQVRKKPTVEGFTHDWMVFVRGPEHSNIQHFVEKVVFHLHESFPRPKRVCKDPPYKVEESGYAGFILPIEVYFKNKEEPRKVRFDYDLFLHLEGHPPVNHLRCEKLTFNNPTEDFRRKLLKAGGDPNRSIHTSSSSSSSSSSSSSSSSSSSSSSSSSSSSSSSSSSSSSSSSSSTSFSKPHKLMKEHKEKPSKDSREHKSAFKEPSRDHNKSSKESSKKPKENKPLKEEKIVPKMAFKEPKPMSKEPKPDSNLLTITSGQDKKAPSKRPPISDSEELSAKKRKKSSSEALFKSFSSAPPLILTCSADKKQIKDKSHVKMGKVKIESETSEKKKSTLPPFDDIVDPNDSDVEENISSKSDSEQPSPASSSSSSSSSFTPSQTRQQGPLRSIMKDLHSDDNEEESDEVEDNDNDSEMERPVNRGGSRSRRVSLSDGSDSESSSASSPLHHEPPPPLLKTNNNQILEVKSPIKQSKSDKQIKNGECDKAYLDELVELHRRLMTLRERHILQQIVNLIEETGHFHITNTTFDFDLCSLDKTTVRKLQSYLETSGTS
A1 inh = inhibitors of the anti-apoptotic protein A1, read as caspase activation. MEF A1-2A-BIM cells, Caspase-Glo 3/7 luminescence, 3 h; percent of clofoctol response, vehicle zero. caspase activation, % (test concentration not listed). actives 0.066% (n = 330,000). AID 2462;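 active = over half of replicate activation scores above 10%, or exactly half above 10 with the replicate mean above 10; inconclusive = replicate mean below 10 yet half the replicates above 10; inactive = over half of replicates below 10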;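 also: wells of about 30 µL received 50 nL stock; many hits fall short of the cut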
rRNA inh HTS = selective bacterial rRNA inhibition in E. coli; actives 1.6% (n = 350,000); GFP signal change (wild-type ribosome), % (concentration not given with the values); AID 720706; E. coli WT GFP vs humanized-ribosome RFP mutants, fluorescence, 24 h; stronger effect = lower value; DMSO median 0, no signal -100;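 active = significant combined selectivity score with lowered wild-type GFP, culture density cut under 30%, mutant RFP and density less affected; inactive = any of these conditions unmet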; also: one replicate is shown; some compounds called inactive have numbers as strong as hits
T cruzi repl = blocks replication of Trypanosoma cruzi | T. cruzi beta-gal in NIH3T3, luminescence, 90 h | actives 1.4% (n = 300,000) | inhibition, % (concentration not given with the values);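 active = mean inhibition across valid replicates above about 55%, limit read from the data; inconclusive = mean below that limit but half or more replicates reach it; inactive = mean below it, under half of replicates reach it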;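 also: signal also drops with host cell toxicity which is not excluded here; 0% = plate median of DMSO wells and 100% = zero luminescence signal; higher percent means less beta-gal luminescence so fewer parasites; stock transfer was 50 nL into about 50 µL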
RanGTP-Impb inh = disruptors of Ran-importin-beta complex formation – biochemical, FRET, CFP-Ran, YFP-importin-beta, homogeneous, primary screen; cell-free CFP-Ran/YFP-importin-beta FRET ratio; actives 1.1% (n = 300,000); AID 2216; inhibition, % (no concentration beside the values);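 active = most replicates above 15%; inconclusive = exactly half above 15%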;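 also: 0% = DMSO wells and 100% = Ran loaded with GDP instead of GTP; wells of about 40 µL received 100 nL stock; the first replicate is given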
rRNA inh HTS OD600 = recorded beside rRNA inh HTS, whose call it bears; OD600 change, %; measured here: OD600 growth;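 optical density of the mix in the first replicate; 0 = DMSO median and -100 = no signal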
rRNA inh HTS RFP = further read-out of rRNA inh HTS, marked with its call; RFP signal change, %; measured here: RFP humanized mutant strains;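 first replicate; 0 = DMSO median and -100 = no signal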
* = called active by the depositor; ? = inconclusive; . = not tested or not shown; & = joins results of further samples. Not all compounds are listed; rates above refer to the full screens.

SMILES	Calb FLC	Beta apoptosis	Vif TR-FRET	MLL AF4-AF9 inh	A1 inh	rRNA inh HTS	rRNA inh HTS OD600	rRNA inh HTS RFP	T cruzi repl	RanGTP-Impb inh
CC(=O)Nc1ccc(S(=O)(=O)NNC(=O)c2ccc(C)cc2)cc1	-19.3	-1.7	-2.2%	.	0.0	.	.	.	-8.5	0.5
CN(C)CCCN(C(=O)c1ccc(S(=O)(=O)N2CCc3ccccc32)cc1)c1nc2c(Cl)cccc2s1	-12.7	0.1	.	7.3	0.0	-39.9*	-24.4*	2.0*	54.9*	0.7
CC(C)(C)OC(=O)NCCCCCC(=O)N/N=C/c1coc2ccccc2c1=O	-10.1	-4.8	-7.1%	0.8	-0.2	-1.3	-4.7	1.7	2.2	-1.8
CNC(=O)C(=O)Nc1c(C)cc(C)cc1C	3.1	-1.7	-0.2%	.	-0.4	.	.	.	-6.9	-5.4
COc1ccc(C(=O)NNC(=O)C(=O)NC2CCCCC2)cc1	10.5	-1.5	?	-5.0	0.4	4.4	0.7	-1.1	-6.2	-4.8
Cc1cc2sc3nc(=O)n(-c4ccccc4)c(=O)n3c2cc1C	0.7	.	-5.0%	1.7	-5.9	-0.1	2.9	0.4	-4.1	4.2
c1csc(-c2csc3nc(CN4CCOCC4)nc(NCc4ccc5c(c4)OCO5)c23)c1	0.3	11.4	-3.4%	.	0.0	.	.	.	57.0*	-0.4
CCN1CCN(CC(O)COc2ccc(C(C)=O)cc2)CC1 (stereo unspecified)	0.8	.	5.1%	-1.3	1.5	2.8	-2.1	9.1	8.1	1.1
Cc1c(C(=O)N2CCCCC2)nn(-c2ccc(Cl)cc2)c(=O)c1C#N	29.6	-4.8	8.0%	-1.4	-0.3	18.6	14.7	-0.1	-0.7	0.3
c1ccc(COc2cccc(CNCc3ccccn3)c2)cc1	-38.4	0.0	13.3%	7.1	-1.7	0.4	-10.4	-0.3	-3.0	3.0
CC(=O)Nc1nc(NCc2ccccc2Cl)n(-c2ccccc2)n1	1.6	3.7	-2.7%	0.4	0.4	1.6	5.7	-0.6	1.7	-2.8
COc1ccc(-c2cnnc(N/N=C/c3ccc(O)cc3)n2)cc1	-7.5	3.0	-11.3%	2.1	-0.2	-44.2	-64.9	3.7	0.6	2.0
CCCCn1c(N)c(N(CCOC)C(=O)c2cc(-c3ccco3)nc3ccccc23)c(=O)[nH]c1=O	1.0	-1.4	10.9µM*	1.5	0.8	0.0	0.4	-0.5	-9.4	3.1
COc1cc(C2c3c(oc4ccccc4c3=O)C(=O)N2c2ccc(C)cn2)ccc1O (stereo unspecified)	1.7	-0.5	1.3%&-3.8%	-1.7	0.1	-1.5	-3.4	1.7	5.5	3.8
O=C(NCc1n[nH]c(=S)n1-c1cccc(Cl)c1)c1ccc(S(=O)(=O)N2CCCCC2)cc1	12.7	-2.2	.	-10.8	2.3	-6.5	-8.7	-0.7	5.9	1.6
COc1cc(CNCCc2ccccc2)cc(Cl)c1OCc1ccccc1	-2.0	14.5	-1.0%	-1.0	0.7	-42.1	-62.4	-7.9	37.4	1.4
Cc1ccc(CN2CCN(/N=C/c3ccc(C)s3)CC2)cc1	11.7	-3.2	7.9%	.	-2.0	.	.	.	-9.9	3.9
Cc1ccccc1-c1ccccc1N	18.6	-3.3	-11.0%	-5.2	-0.3	2.7	0.6	-1.0	-2.6	-2.0
COC(=O)c1ccc(NC(=O)C2CCCN2S(=O)(=O)c2ccc(OC)cc2)cc1 (stereo unspecified)	8.5	3.7	-1.1%&-1.4%	.	0.9	.	.	.	9.6	-0.1
CC(C)CCN(CCC(C)C)C(CO)(CO)CO	-2.5	-2.6	22.0%	-1.2	0.5	24.1	25.9	1.1	14.2	-3.3

4 compounds from above, showing only Calb FLC.
mol	Calb FLC
CCCCn1c(N)c(N(CCOC)C(=O)c2cc(-c3ccco3)nc3ccccc23)c(=O)[nH]c1=O	1.0
COc1cc(C2c3c(oc4ccccc4c3=O)C(=O)N2c2ccc(C)cn2)ccc1O (stereo unspecified)	1.7
O=C(NCc1n[nH]c(=S)n1-c1cccc(Cl)c1)c1ccc(S(=O)(=O)N2CCCCC2)cc1	12.7
COc1cc(CNCCc2ccccc2)cc(Cl)c1OCc1ccccc1	-2.0

(more compounds)
SMILES	Calb FLC	Beta apoptosis	Vif TR-FRET	MLL AF4-AF9 inh	A1 inh	rRNA inh HTS	rRNA inh HTS OD600	rRNA inh HTS RFP	T cruzi repl	RanGTP-Impb inh
C[C@@H](NC(=O)c1nc[nH]c1C(=O)N[C@@H](Cc1ccccc1)C(=O)OCc1ccccc1)c1ccccc1	7.6	-7.3	1.0%	-3.9	-1.5	4.6	-2.5	-4.6	6.7	3.8
CCOC(=O)c1cc2c(=O)n3cccc(C)c3nc2n(CCOC)c1=NC(C)=O	19.2	0.5	-5.5%	.	0.1	12.6	4.0	0.5	8.2	70.4*
CN(Cc1ccccc1)C(=O)COC(=O)C1CCN(S(=O)(=O)c2cccs2)CC1	-3.5	-7.9	-2.8%	0.1	-0.4	-11.6	-12.3	-0.7	-17.0	0.9
CCc1cc2ccccc2nc1SCC(=O)N1CCN(C(=O)c2ccco2)CC1	-1.4	.	-7.0%&3.2%	.	.	.	.	.	9.4	-0.5
O=C(NCCc1ccc(Cl)cc1)C1CC(=O)N(C2CCCC2)C1 (stereo unspecified)	-3.2	-8.9	-2.1%	-4.0	-0.6	1.4	0.8	0.1	-5.2	-3.1
O=C(O)/C=C/c1ccc(S(=O)(=O)NCc2cccnc2)cc1	5.6	-6.2	-12.3%	-4.1	-0.8	2.9	1.6	3.6	-6.5	6.8
O=C(O)CC(c1ccccc1)N1C(=O)c2cccc([N+](=O)[O-])c2C1=O (stereo unspecified)	-9.3	-2.9	.	-1.1	-1.1	9.0	0.5	-3.0	-9.4	3.1
CC1CCN(Cc2cc(=O)oc3ccc4ccccc4c23)CC1	-16.6	.	-14.4%	11.9	0.2	-22.6*	-10.3*	-0.3*	8.0	-3.0
COC(=O)c1ccc(CNC(=O)COC(=O)C23CC4CC(CC(C4)C2)C3)cc1	-22.4	-3.0	.	2.5	0.6	-24.9	-20.5	-12.2	-4.4	0.3
COCC(=O)Nc1ccc(S(=O)(=O)Nc2nccs2)cc1	12.8	0.2	-11.1%	-5.9	0.7	11.5	8.5	-0.4	-2.3	-0.4
Cc1ccccc1N1CCN(S(=O)(=O)c2nnc(NC(=O)CC(C)C)s2)CC1	-4.5	-7.1	.	-8.8	0.6	-9.7	-0.1	-6.5	-12.6	?
CCN(CC(=O)NCc1cccs1)C(=O)CCC(=O)c1ccc(F)cc1	-1.0	-5.0	0.6%	-0.9	0.3	-0.5	1.6	-2.1	8.3	2.6
CC(C)C(=O)Nc1nnc(SCC(=O)NCC2CCCO2)s1 (stereo unspecified)	-7.7	-8.6	0.1%	-2.2	1.0	5.5	9.2	0.0	-5.7	8.9
COc1ccc2nc(NC(=O)CSc3n[nH]c(N)n3)sc2c1	.	9.8	5.6%	0.3	-1.0	2.8	-1.9	-0.6	-17.0	0.3
O=c1[nH]nc(Sc2ncnc3sccc23)n1CCc1ccccc1	1.6	-6.0	5.2%	.	-0.5	.	.	.	-4.6	6.0
N#CC(C#N)=C(Nc1ccc(F)cc1)SCc1cccc(F)c1	27.9	101.8*	.	.	0.0	.	.	.	-33.7	-1.1
Cc1ccc(NC(=O)O/N=C/c2c(C)nn(C(C)(C)C)c2C)cc1Cl	-6.5	-1.9	21.9%	-0.6	0.5	-8.9	1.7	-3.2	8.9	1.7
Cc1c(Cl)cccc1NC(=O)CC(Cc1ccccc1)C(=O)O (stereo unspecified)	1.0	-6.4	40.1%	0.0	-0.1	-1.6	7.1	-6.2	1.2	1.3
CCCc1cc(=O)oc2cc(OCC(=O)Nc3cc(C)on3)ccc12	4.3	-1.6	-5.0%	.	0.3	.	.	.	-15.2	0.1
CS(=O)(=O)NCC(c1cccnc1)N1CCN(c2ccccc2F)CC1 (stereo unspecified)	5.9	2.3	3.1%	1.5	-0.5	7.2	6.2	-2.9	31.2	-1.1

Three entries already listed, sorted by the value under Vif TR-FRET, descending:
canonical_smiles,Vif TR-FRET
O=c1[nH]nc(Sc2ncnc3sccc23)n1CCc1ccccc1,5.2%
CS(=O)(=O)NCC(c1cccnc1)N1CCN(c2ccccc2F)CC1 (stereo unspecified),3.1%
CC(C)C(=O)Nc1nnc(SCC(=O)NCC2CCCO2)s1 (stereo unspecified),0.1%

Going on with the list:
SMILES	Calb FLC	Beta apoptosis	Vif TR-FRET	MLL AF4-AF9 inh	A1 inh	rRNA inh HTS	rRNA inh HTS OD600	rRNA inh HTS RFP	T cruzi repl	RanGTP-Impb inh
CN1CCc2nc(SCCOc3ccccc3)c(C#N)cc2C1	-0.6	.	28.4%	.	0.3	.	.	.	14.3	5.3
CC(C)Cn1nc(NC(=O)c2ccco2)c2cc3ccccc3nc21	0.7	-10.6	.	-14.1	0.5	-0.2	7.0	-1.0	-13.2	51.3*
COc1ccc(NC(=O)CSCC(=O)N2c3ccccc3CCc3ccccc32)cc1	21.1	1.4	.	0.6	-0.3	-8.4	-3.1	1.2	20.0	0.3
Cc1cccnc1NC(=O)C(C)N1C(=O)c2ccccc2C1=O (stereo unspecified)	0.0	-6.6	.	-9.1	-0.5	6.8	-2.0	3.0	-10.7	-2.1
CC(=O)c1cccc(NC(=O)COc2cc3oc(=O)c(CC(C)O)c(C)c3cc2Cl)c1 (stereo unspecified)	-18.8	0.2	1.8%	-14.5	0.0	1.1	1.9	0.6	-6.9	0.4
CCOC(=O)CSc1nnc(-c2cccc(Br)c2)o1	0.4	-7.8	-11.8%	.	-0.5	.	.	.	-3.3	3.4
COC(=O)CNC(=O)COC(=O)c1cc(F)c(F)cc1Cl	-1.9	1.8	2.7%	.	0.9	.	.	.	-12.3	-1.4
Cc1nc2ncnn2c(C)c1Cc1cccc(F)c1	-1.0	-4.4	-12.4%	-1.2	2.0	22.6	11.8	-0.2	-6.2	?
Cc1ccc(CN2CCNC(=O)C2CC(=O)N(C)CCc2cnn(C)c2)cc1 (stereo unspecified)	11.4	-6.3	.	-2.8	0.0	15.2	6.9	4.8	-16.6	6.9
Cc1sc2nc3c(C(=O)N4CCCC4)cc(C(=O)c4ccccc4O)cn3c(=O)c2c1C	0.5	2.6	-10.3%	4.5	0.1	10.0	4.2	3.2	10.0	-5.1
